Screens: PubChem, National Center for Advancing Translational Sciences (NCATS)
Vaccinia mCherry = vaccinia inhibition (mCherry reporter); Potency, µM (highest dose often 36.5 µM), for inactives: at the top dose activity change, negative = inhibition, most hits filed as inhibitors; actives 0.63% (n = 310,000); AID 720579; Vaccinia virus mCherry reporter infection, fluorescence; about a quarter of the inactives have no number; active = well fitted inhibition curve with a large enough effect; inconclusive = small, poorly fitted or top-dose-only effect; inactive = no such curve, though single readings can be large or run the other way; tested in A549 cells; note: nearly all actives have a fitted effect of over 35% in size; inactives centre near -10
Vaccinia Venus = inhibitors of vaccinia virus (Venus reporter) | Vaccinia virus Venus reporter expression, fluorescence | Potency, µM (series often up to 36.5 µM), for the others: at the highest dose activity change, negative = inhibition, usual class: inhibitors | actives 0.46% (n = 330,000) | AID 720580; active means well fitted inhibition curve with a large enough effect; inconclusive means small, poorly fitted or top-dose-only effect; inactive means no such curve, though single readings can be large or run the other way; tested in A549 cells; note: nearly all actives have a fitted effect of over 30% in size; inactives centre near -10
Starred values were filed as active, the others as inactive; & = joins results of further samples; [ ] = remark or other dose. % is set by controls: 0 for no effect and ±100 for the full control effect; potency is the fitted concentration of half-maximal effect. The order is random (roughly 0.88% active in at least one column).

Results for O=C(CSc1ccccc1)NC1CC1 ?
Vaccinia mCherry: -2%; Vaccinia Venus: -6%

What do the screens show for `Cc1nnc(NC(=O)c2cccc(S(=O)(=O)N3CCN(C)CC3)c2)s1`?
Vaccinia mCherry: -13%; Vaccinia Venus: -6%

How did COc1ccc(S(=O)(=O)N2CCCCC2)cc1NC(=O)c1ccc(=O)[nH]c1 do in these assays?
Vaccinia mCherry: -7%; Vaccinia Venus: -9%

How did COP(=O)(OC)C(NC(=O)Nc1ccccc1)c1ccccc1 (centres undefined) do in these assays?
Vaccinia mCherry: -8%; Vaccinia Venus: -5%

How did CC1(C)NC(=O)N(CC(O)COc2ccccc2[N+](=O)[O-])C1=O (centres undefined) do in these assays?
Vaccinia mCherry: -4%; Vaccinia Venus: -6%

How did Cc1cc(C)n2nc(C(=O)N3CCOCC3)nc2n1 do in these assays?
Vaccinia mCherry: -10%; Vaccinia Venus: -9%

How did CCCCC[C@H](O)/C=C/[C@@H]1[C@@H](C/C=C\CCCC(=O)O)[C@H]2CO[C@@H]1C2 do in these assays?
Vaccinia mCherry: -15%; Vaccinia Venus: -6%

What do the screens show for `Cc1nn(-c2ccccc2)c(C)c1/C=N/NC(=O)CSc1nnc(SCc2ccccc2Cl)s1`?
Vaccinia mCherry: -13%; Vaccinia Venus: -18%

Results for Cc1sc2ncnc(SCC(=O)Nc3nc(-c4ccc(F)c(F)c4)cs3)c2c1C ?
Vaccinia mCherry: 2%; Vaccinia Venus: -3%

How did Cc1ccc(CNC(=O)C2CC(=O)N(C3CCCCCCC3)C2)cc1 (centres undefined) do in these assays?
Vaccinia mCherry: -6%; Vaccinia Venus: -14%

How did COCCn1c(C)cc(C(=O)CSc2ncnc3sc4c(c23)CCC4)c1C do in these assays?
Vaccinia mCherry: -30%; Vaccinia Venus: -25%

Results for CC(C)CN1C(=O)CN(S(C)(=O)=O)CC1(C)C(=O)NCc1ccccc1 (centres undefined) ?
Vaccinia mCherry: inconclusive; Vaccinia Venus: -1%

Next section; it opens with the three that closed the last part.
How did Cc1ccc(CNC(=O)C2CC(=O)N(C3CCCCCCC3)C2)cc1 (centres undefined) do in these assays?
Vaccinia mCherry: -6%; Vaccinia Venus: -14%

How did COCCn1c(C)cc(C(=O)CSc2ncnc3sc4c(c23)CCC4)c1C do in these assays?
Vaccinia mCherry: -30%; Vaccinia Venus: -25%

Results for CC(C)CN1C(=O)CN(S(C)(=O)=O)CC1(C)C(=O)NCc1ccccc1 (centres undefined) ?
Vaccinia mCherry: inconclusive; Vaccinia Venus: -1%

Results for COc1ccc(-c2nnc(SCC(=O)c3ccc[nH]3)n2-c2ccccc2)cc1 ?
Vaccinia mCherry: -17%; Vaccinia Venus: -13%

Results for Nc1nnnn1/N=C/C=C/c1ccccc1 ?
Vaccinia mCherry: -19%; Vaccinia Venus: -4%

What do the screens show for `CC1CN(C(=O)N2CCC(C(=O)NCCC3=CCCCC3)CC2)c2cc(Cl)ccc2O1` (centres undefined)?
Vaccinia mCherry: 43%[activator]; Vaccinia Venus: 26%

Results for CC(C)NC(=O)c1onc(CSc2ccc(F)c(F)c2)c1C(=O)O ?
Vaccinia mCherry: inactive; Vaccinia Venus: -8%

What do the screens show for `Cc1ccc(-n2nnnc2CNC(=O)C(C)(C)C)cc1C`?
Vaccinia mCherry: -7%; Vaccinia Venus: -10%

Results for CCOc1ccccc1C1CC(=O)Nc2cc(OC)c(OC)c(OC)c21 (centres undefined) ?
Vaccinia Venus: 10%

Results for COc1ccc(OC)c(C(=O)CSc2nc3ccccc3n2CC(=O)NC(C)(C)C)c1 ?
Vaccinia Venus: inconclusive

How did Cc1cc(C)c(NC(=O)/C(=C/c2ccco2)c2ccccc2)c(C)c1 do in these assays?
Vaccinia mCherry: -23%; Vaccinia Venus: -18%

What do the screens show for `COc1ccccc1Oc1cc(C#N)c(C#N)cc1-n1nnc2ccccc21`?
Vaccinia mCherry: -25%; Vaccinia Venus: -22%

What do the screens show for `CN(C(=O)Cc1ccccc1)[C@H](CN1CCCC1)c1ccccc1`?
Vaccinia mCherry: -25%; Vaccinia Venus: -20%

Results for Cc1cc(-c2ccccc2)c2nncn2n1 ?
Vaccinia mCherry: -11%; Vaccinia Venus: -12%

What do the screens show for `COC(=O)CN(c1ccc(F)cc1)S(=O)(=O)c1ccc2c(c1)OCCO2`?
Vaccinia mCherry: -8%; Vaccinia Venus: 2%

What do the screens show for `Cc1ccc2onc(CNC(=O)N(C)Cc3ccccc3)c2c1`?
Vaccinia mCherry: 3%; Vaccinia Venus: -2%

How did CC(Sc1nnc(NC2CC2)s1)C(=O)Nc1ccc(S(N)(=O)=O)cc1 (centres undefined) do in these assays?
Vaccinia mCherry: -23%; Vaccinia Venus: 15%

How did C=C1C[C@H](O[C@@H]2O[C@H](CO)[C@@H](O)[C@H](O)[C@H]2O)[C@@H]2[C@H](OC(=O)[C@H]2C)[C@H]2[C@H](C)[C@H](O)C[C@@H]12 do in these assays?
Vaccinia mCherry: inactive; Vaccinia Venus: -4%

How did CCCc1nc2ccccc2c(C(=O)OCC(=O)Nc2c(C)n(C)n(-c3ccccc3)c2=O)c1CC do in these assays?
Vaccinia mCherry: -16%; Vaccinia Venus: -15%

What do the screens show for `CSc1ccc(CCNC(=O)CN2C(=O)CCSc3ccccc32)cc1`?
Vaccinia mCherry: -11%; Vaccinia Venus: -18%

Results for c1ccc(CCNc2nc(-c3ccncc3)nc3ccccc23)cc1 ?
Vaccinia mCherry: -35%; Vaccinia Venus: -40%

Results for CON(C)C(=O)CC(CN(Cc1ccccc1)C(=O)OC(C)(C)C)c1ccc(Cl)cc1 (centres undefined) ?
Vaccinia mCherry: 8%; Vaccinia Venus: -12%

How did O=C(NC(=S)N1CC=CCC1)c1ccccc1 do in these assays?
Vaccinia mCherry: -13%; Vaccinia Venus: -1%

Results for Cc1c(Cl)cccc1NC(=O)Nc1ccn(C)n1 ?
Vaccinia mCherry: -1%; Vaccinia Venus: -18%

How did CCc1ccc(S(=O)(=O)NCc2ccc3c(c2)CCN3C(=O)c2ccc(C)cc2)cc1 do in these assays?
Vaccinia mCherry: -24%; Vaccinia Venus: -29%

How did CC(C)=C1CCC(C)CC1=NNC(N)=S (centres undefined) do in these assays?
Vaccinia mCherry: -14%; Vaccinia Venus: -15%

Results for CCCOc1ccc(F)cc1-c1cc(C(=O)NCc2cc(C(F)(F)F)cc(C(F)(F)F)c2)[nH]n1 ?
Vaccinia mCherry: -10%; Vaccinia Venus: -15%

What do the screens show for `O=C(NC1CCCc2c1cnn2-c1cc(F)cc(F)c1)c1cc[n+]([O-])cc1` (centres undefined)?
Vaccinia mCherry: -8%; Vaccinia Venus: -14%

What do the screens show for `COc1ccc(CCNC(=O)Cc2cc(OC)c(OC)cc2[N+](=O)[O-])cc1OC`?
Vaccinia Venus: -5%

How did CCOc1cc(Cl)c(CNCCCN2CCOCC2)cc1OC do in these assays?
Vaccinia mCherry: inactive; Vaccinia Venus: -12%

What do the screens show for `Oc1ccc(CN2CCC(Cc3ccccc3)CC2)c2cccnc12`?
Vaccinia mCherry: -21%; Vaccinia Venus: inconclusive

How did CC1CCN(C(=O)c2[nH]cnc2C(=O)Nc2ccon2)CC1 do in these assays?
Vaccinia mCherry: -13%; Vaccinia Venus: -4%

How did O=C(CSc1cccc2cccc(Cl)c12)NC1=NCCS1 do in these assays?
Vaccinia mCherry: -16%; Vaccinia Venus: -7%

What do the screens show for `CC(=O)Nc1cccc(-c2ccnc3c2CC(C)(C(=O)NCc2ccncc2)O3)c1` (centres undefined)?
Vaccinia mCherry: inactive; Vaccinia Venus: inconclusive

What do the screens show for `O=C(Nc1cccc2[nH]c([C@H]3C[C@H](O)[C@@H](CO)O3)nc12)NC(c1ccccc1)c1ccccc1`?
Vaccinia mCherry: 9%; Vaccinia Venus: 3%

What do the screens show for `N=c1n(Cc2ccc(Cl)cc2)c2ccccc2n1CC(O)c1ccco1` (centres undefined)?
Vaccinia mCherry: -11%; Vaccinia Venus: -19%

How did Cc1nc(N2CCOCC2)c2c(C(=O)N3CCN(c4ccccc4)CC3)c(C)oc2n1 do in these assays?
Vaccinia mCherry: inactive; Vaccinia Venus: -15%

Results for COc1ccc(C(C(=O)NC2CCCCC2)N(C(=O)Cc2c[nH]c3ccccc23)c2ccccc2)cc1OC (centres undefined) ?
Vaccinia mCherry: -15%; Vaccinia Venus: inconclusive

How did CCOc1cc(C(=O)N(Cc2nc(-c3ccc(C)cc3)no2)C(C)C)cc(OCC)c1OCC do in these assays?
Vaccinia mCherry: -16%; Vaccinia Venus: -9%

Sorted by molar mass (highest first): three of the compounds above
Results for CCCOc1ccc(F)cc1-c1cc(C(=O)NCc2cc(C(F)(F)F)cc(C(F)(F)F)c2)[nH]n1 ?
Vaccinia mCherry: -10%; Vaccinia Venus: -15%

How did CCCCC[C@H](O)/C=C/[C@@H]1[C@@H](C/C=C\CCCC(=O)O)[C@H]2CO[C@@H]1C2 do in these assays?
Vaccinia mCherry: -15%; Vaccinia Venus: -6%

How did CC(C)=C1CCC(C)CC1=NNC(N)=S (centres undefined) do in these assays?
Vaccinia mCherry: -14%; Vaccinia Venus: -15%

Later entries
Results for CN1CCC(N(C)C(=O)CNC(=O)c2ccc(C(C)(C)C)cc2)CC1 ?
Vaccinia mCherry: -8%; Vaccinia Venus: -1%

Results for CCCCn1c(OC(=S)N(CC)CC)cc(C)nc1=S ?
Vaccinia mCherry: -26%; Vaccinia Venus: -17%

How did Cc1ccc2c(c1)C(=O)C1(O)CCN(c3ccccc3)C1=N2 (centres undefined) do in these assays?
Vaccinia mCherry: inactive; Vaccinia Venus: -11%[60.7 µM]

Results for O=C(COc1ccccc1)Nc1ccc(S(=O)(=O)Nc2ccccn2)cc1 ?
Vaccinia mCherry: inactive; Vaccinia Venus: -1%

How did O=C(CCc1ccccc1)N1CCN(c2ccccc2F)CC1 do in these assays?
Vaccinia mCherry: inactive; Vaccinia Venus: 6%

How did Cc1cccc(N(C(=O)CNC(=O)c2ccco2)C(C(=O)NC2CCCC2)c2ccncc2)c1 (centres undefined) do in these assays?
Vaccinia mCherry: -15%; Vaccinia Venus: -7%

How did COC(=O)c1cc(NC(=O)c2ccc(-c3ccc(Cl)cc3Cl)o2)cc(C(=O)OC)c1 do in these assays?
Vaccinia mCherry: -11%; Vaccinia Venus: -6%

Results for CC(C)CC(=O)Nc1cccc(NC(=O)c2ccccc2Cl)c1 ?
Vaccinia mCherry: inactive; Vaccinia Venus: -3%

How did COc1ccccc1C(=O)N1CCNC(=O)C1CC(=O)Nc1ccc(Cl)cc1 (centres undefined) do in these assays?
Vaccinia Venus: -10%

How did Cc1ccc(CSc2ncc(Cl)c(C(=O)Oc3ccc(F)cc3)n2)cc1 do in these assays?
Vaccinia mCherry: -10%; Vaccinia Venus: -11%

How did COc1ccccc1C1NC(=O)CCC1[N+](=O)[O-] (centres undefined) do in these assays?
Vaccinia mCherry: -8%; Vaccinia Venus: -6%

How did O=C(Nc1ccc(O)cc1C(=O)O)c1ccc2c(c1)C(=O)N(Cc1ccco1)C2=O do in these assays?
Vaccinia mCherry: -7%; Vaccinia Venus: -7%

Reprinted from the part before: 2 compounds, then new ones.
How did COc1ccccc1C1NC(=O)CCC1[N+](=O)[O-] (centres undefined) do in these assays?
Vaccinia mCherry: -8%; Vaccinia Venus: -6%

How did O=C(Nc1ccc(O)cc1C(=O)O)c1ccc2c(c1)C(=O)N(Cc1ccco1)C2=O do in these assays?
Vaccinia mCherry: -7%; Vaccinia Venus: -7%

Results for O=C(COC(=O)c1ccc(-n2cnnn2)cc1)c1ccc(Br)cc1 ?
Vaccinia mCherry: -14%; Vaccinia Venus: -14%

What do the screens show for `Cc1ccc(OCC(O)Cn2c3ccccc3c3ccccc32)cc1` (centres undefined)?
Vaccinia mCherry: -21%; Vaccinia Venus: inconclusive

Results for CC(C)c1c(O)ccc2c1CCC1[C@@](C)(C=O)CCC[C@@]21C (some centres undefined) ?
Vaccinia mCherry: inactive; Vaccinia Venus: -22%

Results for CCCCOCCCNC(=O)C[C@@H]1C[C@@]2(C(=O)OC)CCCCC=C2N(Cc2ccccc2)C1=O ?
Vaccinia mCherry: -21%; Vaccinia Venus: -18%

What do the screens show for `COc1ccc(C2OC[C@H]3O[C@H](O)[C@H](NC(C)=O)[C@@H](O)[C@@H]3O2)cc1` (some centres undefined)?
Vaccinia mCherry: inactive; Vaccinia Venus: -2%

What do the screens show for `COc1ccc(-n2nnnc2C(C2CC2)N2CCN(C/C=C/c3ccccc3)CC2)cc1` (centres undefined)?
Vaccinia mCherry: inactive; Vaccinia Venus: -8%

What do the screens show for `O=C(Nc1cccc2ncccc12)c1ccc2c(c1)OCCO2`?
Vaccinia Venus: -12%

How did CNc1ccncc1S(=O)(=O)NC do in these assays?
Vaccinia mCherry: -22%; Vaccinia Venus: -13%

What do the screens show for `COc1ccc(S(=O)(=O)N2CCN(c3nc(-c4cccs4)nc4ccccc34)CC2)cc1`?
Vaccinia mCherry: -16%&-18%; Vaccinia Venus: -13%&-11%

What do the screens show for `COc1ccc(S(=O)(=O)NCCOc2ccccc2)cc1F`?
Vaccinia mCherry: -2%; Vaccinia Venus: -13%

Results for COc1ccccc1-c1csc(NC(=O)c2cc(-c3cccs3)nc3ccccc23)n1 ?
Vaccinia mCherry: -19%; Vaccinia Venus: -14%

Results for COC(=O)[C@@H]1CCCN1C(=O)c1cc(NC(=O)c2ccccc2)cc2ncn(C3CCCC3)c12 ?
Vaccinia mCherry: -3%; Vaccinia Venus: 0%

How did Cc1ccc(CN2CCC(n3nccc3NC(=O)CCOc3ccccc3)CC2)o1 do in these assays?
Vaccinia mCherry: -26%; Vaccinia Venus: inconclusive

Results for COc1ccc2c(C)c(CCC(=O)NCc3ccccc3OC)c(=O)oc2c1 ?
Vaccinia mCherry: -14%; Vaccinia Venus: -3%
